TRPV1 potentiator – enhances activation of the human vanilloid receptor TRPV1; potentiation, % at 8.33 µM; 320,000 compounds, 0.02% hits; TRPV1-expressing cells, Fluo-8 calcium influx, capsaicin EC20 potentiation; host cell line not named in the record; control for the full effect not named in the record; active means potentiation above 80%; inconclusive means 30% to 80%; inactive means below 30%; note: 0% is about no effect
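Fluo-8 calcium influx in TRPV1-expressing cells, kinetic read (ex 480/em 520 nm). Compound added and read 3 min for agonist activity, followed by capsaicin at EC20 final and 2 min further read for enhancement.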
gsp antagonist – antagonizes gsp, the McCune-Albright syndrome mutation. Potency, µM (titrated, usually from 76.9 µM), for inactives: at the top dose activity change, negative = inhibition, actives largely listed as inhibitors. gsp-mutant cells, cAMP HTRF, 30 min; control for the full effect not named in the record. 340,000 compounds, 0.4% hits; active = falling curve of any shape with a large fitted effect; inconclusive = falling curve, mostly with a smaller effect; inactive = flat or rising curve; cell line not stated here;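 note: intracellular cAMP measured with PDE inhibitor Ro 20-1724 present during compound exposure; potency is the fitted concentration of half-maximal effect; % is set by controls: 0 for no effect and ±100 for the full control effect; nearly all actives have a fitted effect of over 65% in size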
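Measurement of cellular cAMP by homogeneous time-resolved fluorescence following a 30 min compound exposure at 37C. The PDE inhibitor […] was present throughout; the assay buffer was DPBS with 0.05% BSA and 0.005% Tween 20.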
Sfp PPTase inh – Sfp phosphopantetheinyl transferase inhibition; Q9F4F7; Biochemical Sfp PPTase activity, qHTS; Potency, µM, for the others: max response, negative = inhibition, usual class: inhibitors; 310,000 compounds, 3.5% hits; active = well fitted inhibition curve with a large enough effect; inconclusive = small, poorly fitted or top-dose-only effect, or another doubt; inactive = no such curve, though single readings can be large or run the other way;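 note: the enzyme is Sfp with the accession as filed and its product quenches rhodamine fluorescence; potency is the fitted concentration of half-maximal effect; 0% = enzyme reaction without inhibitor and -100% = no enzyme wells; top concentration of the series not given in the record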
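After 15 min at room temperature with compound, 15 nM Sfp received 5 uM rhodamine-CoA plus 12.5 uM BHQ-2-ybbR (50 mM Hepes pH 7.6, 10 mM MgCl2). Rate came from the fluorescence difference over 30 min, ex 525/em 598 nm.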
D2 PAM – positive allosteric modulators of human D2 dopamine receptor; 360,000 compounds, 0.23% hits; potentiation, % (no concentration beside the values); DiscoveRx D2 beta-arrestin cells, luminescence, 90 min; 100% = 57 uM dopamine signal; P14416; active = potentiation of 50% or more; inconclusive = 30% to 50%; inactive = 30% or less;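 note: compound concentration not given in the record; tested on top of an EC20 dose of dopamine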
Target sequence (P14416 whole entry, looked up): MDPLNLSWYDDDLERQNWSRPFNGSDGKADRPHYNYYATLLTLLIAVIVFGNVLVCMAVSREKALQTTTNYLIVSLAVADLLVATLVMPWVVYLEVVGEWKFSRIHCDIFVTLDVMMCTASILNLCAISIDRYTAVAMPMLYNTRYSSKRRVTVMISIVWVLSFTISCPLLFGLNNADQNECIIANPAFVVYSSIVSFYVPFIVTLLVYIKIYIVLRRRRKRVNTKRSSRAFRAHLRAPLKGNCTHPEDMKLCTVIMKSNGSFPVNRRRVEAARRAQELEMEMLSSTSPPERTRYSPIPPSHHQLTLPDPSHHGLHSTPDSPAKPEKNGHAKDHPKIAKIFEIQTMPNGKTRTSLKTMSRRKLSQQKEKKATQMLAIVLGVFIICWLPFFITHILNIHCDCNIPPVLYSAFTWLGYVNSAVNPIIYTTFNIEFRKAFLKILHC
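D2 cells co-treated with compound plus 50 nM dopamine (EC20) for 90 min at 37 deg C to detect potentiation. Beta-arrestin recruitment was read as enzyme-fragment luminescence after 1 h at ambient temperature. Full response was set by 57 uM dopamine.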
ClpP mod – qHTS Assay for Activators of ClpP; ATP-dependent Clp protease proteolytic subunit (Bacillus subtilis (strain 168)), P80244; purified B. subtilis ClpP, FRET peptide cleavage, 20 min; Potency, µM (titrated, usually from 57.5 µM), for the others: top-dose activity change, negative = active; 340,000 compounds, 1.9% hits; active = well fitted falling curve with a large enough effect; inconclusive = small, poorly fitted or top-dose-only effect; inactive = no such curve, though single readings can be large or run the other way; note: potency is the fitted concentration of half-maximal effect; the source files actives as falling curves though it sought activators and does not explain the sign; nearly all actives have a fitted effect of over 65% in size; many hits overshoot -100%
Target sequence (P80244 whole entry, looked up): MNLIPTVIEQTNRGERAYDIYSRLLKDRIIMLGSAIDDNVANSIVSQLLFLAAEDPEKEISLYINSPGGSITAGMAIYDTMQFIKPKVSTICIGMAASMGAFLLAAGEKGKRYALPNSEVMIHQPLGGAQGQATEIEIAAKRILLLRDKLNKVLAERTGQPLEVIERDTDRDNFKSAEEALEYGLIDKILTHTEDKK
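Purified B. subtilis ClpP, 10 microg/mL final in Tris/HCl pH8 with KCl, BSA, glycerol and Tween-20, cleaved an Abz/nitrotyrosine-quenched decapeptide. Fluorescence (ex 320, em 430) was read at 0 and 20 min at room temperature. Delta was normalized to 5.8 microM ADEP and DMSO/no-enzyme controls.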
gsp agonist – agonists of gsp mutant (McCune-Albright syndrome) | Potency, µM (top dose mostly 76.9 µM), for inactives: at the top dose activation (cAMP increase), usual class: activators | gsp mutant cells, cAMP HTRF, 30 min; control for the full effect not named in the record | AID 624287 | 340,000 compounds, 0.13% hits; active = well fitted activation curve with a large enough effect; inconclusive = small, poorly fitted or top-dose-only effect, or another doubt; inactive = no such curve, though single readings can be large or run the other way; cell line not stated here;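 note: phosphodiesterase inhibitor Ro 20-1724 added with compounds to block cAMP breakdown; potency is the fitted concentration of half-maximal effect; nearly all actives have a fitted effect of over 60% in size; about a fifth of the inactives were tested at one dose only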
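Cells in DMEM/10% FBS with G418 were pretreated with compounds in DMSO plus […] (300 uM stock) for 30 min at 37C. cAMP was measured by HTRF (cAMP-d2 plus anti-cAMP antibody-K) after 30 min at room temperature.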
Menin-MLL FL inh – menin-MLL binding inhibition, fluorescein peptide | Fluorescence polarization, fluorescein-MLL peptide displacement from menin | AID 1766 | FP activity change, % at 61.4 µM | 290,000 tested, under 10 active; inconclusive = falling polarisation curve, or a change in total fluorescence; inactive = total fluorescence flat and polarisation flat or rising; no compound was filed as active; the % refers to the polarisation; negative = inhibition;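 note: % of control where 0% means no effect; inhibitors lower the polarisation; unlabelled MLL peptide was the positive control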
* hit, by the source's call; ? = inconclusive; . = no result given; & = joins results of further samples; ! = not confirmed by another sample; [ ] = remark or other dose.

SMILES	TRPV1 potentiator	gsp antagonist	Sfp PPTase inh	D2 PAM	ClpP mod	gsp agonist	Menin-MLL FL inh
CSCC[C@H](NC(=O)[C@H](Cc1ccccc1)n1c(=O)[nH]c2ccccc2c1=O)C(=O)N1CCC[C@@H]1C(=O)O	19	3%	13%	-11	?	.	0.7
CCOc1ccc(/C=C2\SC(N3CCc4ccccc4C3)=NC2=O)cc1	-18	-14%	?	-31	-9.9%	-19%	6.9
O=C1C(NS(=O)(=O)c2ccccc2)=C(N2CCN(c3ccc(F)cc3)CC2)C(=O)c2ccccc21	-17	-12%	11%	-15	-3.2%	13%	-2.3
NC(=O)CC[C@@H]1NC(=O)[C@H](CO)NC(=O)c2cc([N+](=O)[O-])cc(I)c2NCC[C@@H](C(N)=O)NC1=O	24	2%	-7%	-8	3.4%	.	1.5
CC(C)c1ccc(C(O)P(=O)(OC2CCCCC2)OC2CCCCC2)cc1 (stereo not given)	-19	-2%	11%	-29	1.3%	-1%	0.1
CCCCn1nc(C(=O)NC2=NCCS2)c2ccccc2c1=O	-11	-7%	-1%	-26	-0.4%	19%	1.1
O=C(COc1ccccc1F)NCc1nc2ccccc2[nH]1	-14	8%	11%	-7	.	-5%	0.0
CCc1ccc(N2CC(C(=O)Nc3cccc(S(=O)(=O)N4CCCC4)c3)CC2=O)cc1 (stereo not given)	0	?	.	-16	-1.1%	14%	.
Cc1ccc(C(=O)Nc2cc([N+](=O)[O-])ccc2C)cc1	9	-18%	1%	-11	.	2%[15.4 µM]	1.3
C=CCn1c(SCC(=O)Nc2cccc(C(=O)OC)c2)nnc1C(C)NC(=O)c1cccs1 (stereo not given)	14	-11%	0%	-9	-2.5%	8%	4.5
CN1NC(=O)CC1c1ccccc1 (stereo not given)	.	4%	.	-9	.	?	.
CSc1ccccc1NC(=O)Nc1ccc(F)c(Cl)c1	-11	-31%	7%	-15	0.7%	-5%	1.8

Entries of single compounds from above. Values in the order: TRPV1 potentiator	gsp antagonist	Sfp PPTase inh	D2 PAM	ClpP mod	gsp agonist	Menin-MLL FL inh
CN1NC(=O)CC1c1ccccc1 (stereo not given) reads .	4%	.	-9	.	?	.
CCCCn1nc(C(=O)NC2=NCCS2)c2ccccc2c1=O reads -11	-7%	-1%	-26	-0.4%	19%	1.1
Cc1ccc(C(=O)Nc2cc([N+](=O)[O-])ccc2C)cc1 reads 9	-18%	1%	-11	.	2%[15.4 µM]	1.3

Further results:
SMILES	TRPV1 potentiator	gsp antagonist	Sfp PPTase inh	D2 PAM	ClpP mod	gsp agonist	Menin-MLL FL inh
COC(=O)c1cccc(NC(=O)CCCOc2cccc(C)c2)c1	-21	-4%	-1%	9	1.1%	-8%	0.0
COc1cccc2c1OCC(CN1CCN(Cc3ccccc3)C(CCO)C1)=C2 (stereo not given)	10	5%	0%	-21	-0.2%	17%	0.8
COCC(=O)N1CCC(Oc2ccc(C(=O)N(C)C3CCCCC3)cc2)CC1	-4	3%	22%	-4	-1.1%	-3%	4.6
O=C(CSc1nnc(-c2ccc(O)cc2)o1)Nc1ccccc1Br	-15	-1%	17%	-3	.	-6%	3.4
Cc1ccc(S(=O)(=O)N2CCC(C(=O)N3Cc4ccccc4C3)CC2)cc1	-11	1%	10%	-14	1.4%	-3%	8.5
CN(C)CCCN(C(=O)c1cc(-c2cccs2)nc2ccccc12)c1nc2c(F)cccc2s1	17	-1%	79µM*	-13	3.2%	-2%	.
CCc1ccc(C(=O)COC(=O)c2n[nH]c3ccccc23)cc1	9	1%	-11%	0	1.1%	18%[15.4 µM]	-2.6
COc1cccc(NC(=O)CN(C)C(=O)c2csc3c2CCCC3)c1	-9	-7%	.	-2	-0.3%	11%	.
CCC1C(=O)N(C)CCc2ccccc21 (stereo not given)	6	9%	-1%	3	-2.4%	-4%	4.6
CCCc1nc2oc(C(=O)OCC)c(N)c2c2c1COC(C)(C)C2	-14	2%	7%	-12	14µM*	?	1.3
Cc1nnc(NC(=O)CSc2ncc(-c3ccccc3)[nH]2)s1	15	-12%	-27%	-3	-4.1%	2%	1.4
C=CCN1C=C2C(=O)C(C)(OC(=O)c3ccc(OC)cc3)C(=O)C(c3ccco3)=C2C=C1CCCC (stereo not given)	?	-3%	-7%&9%	7	-1.4%	.	-2.1[11.7 µM]
CC(C)=CC(=O)O[C@@H]1Cc2c(ccc3ccc(=O)oc23)OC1(C)C	.	-4%	.	0	3.7%	.	.
CC1CN(C(=O)CCC(=O)NCc2ccccc2)c2ccccc2S1 (stereo not given)	2	6%	-2%	-9	1.3%	-4%	-6.7
CC(C)CN(C(=O)c1ccc(S(=O)(=O)N2CCCCC2)cc1)C1CCS(=O)(=O)C1 (stereo not given)	5	-1%	.	-25	0.7%	6%	.
CCn1cc(CNC(=O)c2cc(Cl)ccc2OC)c(C)n1	1	2%	11%	-39	-2.1%	-30%[inhibitor]	-0.6
Cc1ccc(CCNc2ccc3ccccc3c2)cn1	.	-8%	.	11	?	-9%	.
CC(C(=O)NCc1cccnc1)N1C(=O)c2ccccc2C1=O (stereo not given)	-1	10%	8%	-14	-1.6%	4%	-0.4
COC(=O)C1=C(C)NC2=C(C(=O)CC(C)(C)C2)C1c1cccc(C)n1 (stereo not given)	-21	6%	4%	-7	?	-19%	5.9
CCCN1C(=O)/C(=C/c2ccc(N3CCCC3)c(C)c2)NC1=S	.	-22%	1%	-9	0.8%	-41%[inhibitor]	?
Cc1ccc(CNC(=O)c2ccccc2NC(=O)C2=CSCCO2)cc1	-1	-21%	-3%	-5	-3.2%	?	.
COC(=O)c1ccc(NC(=O)C2CCN(C(=O)c3cc(OC)c(OC)c(OC)c3)CC2)cc1	-4	5%	2%	-18	-3.1%	0%	5.2
CCCN(CCC)S(=O)(=O)c1ccc(C(=O)Nc2nc(-c3ccccc3)c(C(=O)OCC)s2)cc1	-2	3%	11%	21	0.5%	0%	-1.4
CCOC(=O)N1CCN(C(=O)c2ccccc2NC(C)=O)CC1	-16	.	1%	4	.	0%[15.4 µM]	2.0
CCc1ccc(-n2c(SCC(=O)Nc3ccc(C(=O)O)cc3)nnc2-c2ccncc2)cc1	-4	4%	25%	-6	-4.1%	20%	-1.4
COc1cccc(C(=O)Nc2ccc(F)cc2F)c1	-3	4%	15%	-10	-3.0%	-32%[inhibitor]	1.8
Cc1cccc(NC(=S)NNc2cccc(Cl)c2)c1	4	-10%	-17%	-2	.	-2%	0.8
Cc1ccc(C2c3c(C)nn(-c4ccc([N+](=O)[O-])cc4)c3N=C3C(=O)Nc4ccccc4N32)cc1 (stereo not given)	7	.	7%	.	.	.	-2.8
Nc1ccc2nc3c(=O)n(CCc4ccccc4)c(=O)[nH]c3nc2c1	-15	-14%	-18%	27	.	0%[15.4 µM]	?
Cc1ccc(C)c(-n2c(-c3ccco3)n[nH]c2=S)c1	.	-7%	.	-12	-1.1%	-4%[15.4 µM]	.
COc1cc(/C=N/NC(=O)Cn2nnc3ccccc32)ccc1O	2	0%	-2%	-14	-28%	-97%[inhibitor]	2.1
O=C(NN=C1CCCC1)c1cc(Cl)cc(Cl)c1O	10	?	26%	2	4.2%	-60%[inhibitor]	1.5
CCCNc1nc2ccccc2c(=O)[nH]1	1	3%	18%	-5	.	-31%[inhibitor]	-2.0
CC1CCc2sc(C(=O)NCc3ccc(F)cc3)cc2C1 (stereo not given)	-14	-9%	10%	-9	-0.2%	3%	4.6
COc1cc(C(=S)N2CCOCC2)cc(OC)c1OC	8	8%	50µM*!	-2	.	-8%	-3.2&2.0
CCOc1ccc(/C=N/NC(=O)c2[nH]c3ccc(C)cc3c2C)cc1	21	-2%	-10%	1	.	-4%[15.4 µM]	-0.1
O=C(NCCCn1ccnc1)/C(=C\c1cccnc1)NC(=O)c1ccco1	2	6%	1%	2	.	9%	1.2
CCOC(=O)c1sc(NC(=O)C2CC2)cc1C	16	2%	10%	-2	-7.9%	4%	3.8
O=C(N=C1SC2CS(=O)(=O)CC2N1c1ccc(Br)cc1)C1CCCO1 (stereo not given)	-1	6%	8%	-12	0.7%	21%	.
CCN1CCN(C(CNC(=O)c2ccc3c(c2)OCO3)c2cccnc2)CC1 (stereo not given)	18	6%	12%	-4	-4.3%	-44%[inhibitor]	-0.1
Cc1cccc(C)c1NC(=O)c1cc(-c2ccccn2)nc2ccccc12	-27	?	13%	16	-1.7%	22%	-1.1
CCSC1(SCC)N=C(N)C2(C#N)C(c3ccccc3)NC3=C(CCC3)C12C#N (stereo not given)	0	5%	8%	-1	-1.7%	-18%	0.2
COn1c(=O)c(-c2cccs2)[n+]([O-])c2ccccc21	5	-11%	-17%	28	-16%	20%	12
O=C1c2cc(F)ccc2-n2c1nc1ccccc1c2=O	-7	-13%	-2%	-15	.	8%[15.4 µM]	-2.9
CC(C)CCn1c(SCc2ccc(Cl)cc2)nc2c1c(=O)[nH]c(=O)n2C	-9	-1%	45µM*	-2	0.9%	-60%[inhibitor]	3.0
COc1ccc(OC)c(S(=O)(=O)NCc2ccccc2)c1	1	-8%	12%	-10	-2.3%	-15%	1.7
Cc1cccc(C)c1NC(=O)COC(=O)CCC(=O)c1cccs1	-6	12%	-1%	-7	-0.4%	7%[15.4 µM]	-0.4
COc1ccc(C(=O)OCC(=O)NCc2ccccc2)c(OC)c1OC	-4	7%	7%	-6	.	-27%	0.5
CCC(C(=O)O)n1c2ccccc2c2cn[nH]c(=O)c21 (stereo not given)	11	-2%	6%	-5	3.8%	37%	0.4
NCCC(=O)N1c2ccccc2Sc2ccc(Cl)cc21	-18	7%	-4%	-7	-1.1%	4%	2.8
CCN(CC(=O)Nc1c(F)cccc1F)C(=O)CSCC(=O)Nc1cc(C)on1	5	2%	.	-16	3.2%	16%	.
OCCOCCNc1ncnc2c1c(-c1ccccc1)cn2-c1ccccc1	-8	-5%	2%	4	-3.8%	26%	-1.2
COC(=O)CSc1nc2sc3c(c2c(=O)n1-c1ccccc1)CCN(C)C3	?	5%	1%	-19	18µM*	14%	-1.0

From PubChem

Not a hit list; overall some 5.1% were active at least once.
